Compound activity as filed in PubChem.
ClpP mod: qHTS Assay for Activators of ClpP; actives 1.9% (n = 340,000); Potency, µM (top dose mostly 57.5 µM), for the others: at the highest dose activity change, negative = active; ATP-dependent Clp protease proteolytic subunit (Bacillus subtilis (strain 168)), P80244; purified B. subtilis ClpP, FRET peptide cleavage, 20 min; active = well fitted falling curve with a large enough effect; inconclusive = small, poorly fitted or top-dose-only effect; inactive = no such curve, though single readings can be large or run the other way; note: potency is the fitted concentration of half-maximal effect; the source files actives as falling curves though it sought activators and does not explain the sign; nearly all actives have a fitted effect of over 65% in size; many hits overshoot -100%
Target sequence (P80244 whole entry, looked up): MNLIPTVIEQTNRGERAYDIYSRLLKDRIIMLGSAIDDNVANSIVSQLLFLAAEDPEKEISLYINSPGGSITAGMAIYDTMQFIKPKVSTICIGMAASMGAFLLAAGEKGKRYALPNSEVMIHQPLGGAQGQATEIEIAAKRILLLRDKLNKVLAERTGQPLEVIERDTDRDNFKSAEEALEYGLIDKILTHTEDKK
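FRET quenching reversal measured ClpP activation: 10 microg/mL B. subtilis ClpP at pH 8 with the FRET-FV decapeptide, read at 430 nm after 320 nm excitation. The 20-min minus 0-min signal was scaled between DMSO/no-enzyme wells and ADEP (5.8 microM final).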
TRPV1 PAM: HTS Assay for Compounds that Act as Potentiators of the Vanilloid Receptor 1. Transient receptor potential cation channel subfamily V member 1 (Homo sapiens), Q8NER1. TRPV1-expressing cells, Fluo-8 calcium influx, capsaicin EC20 potentiation; host cell line not named in the record; control for the full effect not named in the record. potentiation, % at 8.33 µM. actives 0.02% (n = 320,000). AID 540277, 2011; active means potentiation above 80%; inconclusive means 30% to 80%; inactive means below 30%; note: 0% is about no effect
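Cells expressing TRPV1 were dye-loaded with Fluo-8 and read kinetically: 10 s baseline, 3 min after compound (agonist portion), then 2 min after EC20 capsaicin (allosteric enhancer portion). Calcium-bound dye fluorescence at 480/520 nm.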
Menin MLL FP FL: qHTS Assay for Inhibitors Targeting the Menin-MLL Interaction in MLL Related Leukemias: Competition With Fluorescein Labeled MLL-derived Peptide. 290,000 tested, under 10 active. AID 1766, 2009. Fluorescence polarization, fluorescein-MLL peptide displacement from menin. FP activity change, % at 61.4 µM; inconclusive = falling polarisation curve, or a change in total fluorescence; inactive = total fluorescence flat and polarisation flat or rising; no compound was filed as active; the % refers to the polarisation; negative = inhibition;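 note: % of control where 0% means no effect; inhibitors lower the polarisation; unlabelled MLL peptide was the positive control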
gsp antag: qHTS for Antagonists of gsp, the Etiologic Mutation Responsible for Fibrous Dysplasia/McCune-Albright Syndrome: qHTS. gsp-mutant cells, cAMP HTRF, 30 min; control for the full effect not named in the record. Potency, µM (titrated, usually from 76.9 µM), inactives show at the top dose activity change, negative = inhibition, most hits filed as inhibitors. actives 0.4% (n = 340,000). AID 624288, 2012; active = falling curve of any shape with a large fitted effect; inconclusive = falling curve, mostly with a smaller effect; inactive = flat or rising curve; cell line not stated here;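 note: intracellular cAMP measured with PDE inhibitor Ro 20-1724 present during compound exposure; potency is the fitted concentration of half-maximal effect; % is set by controls: 0 for no effect and ±100 for the full control effect; nearly all actives have a fitted effect of over 65% in size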
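Cells in G418 medium, seeded 16-24 h, 37C; buffer exchange to DPBS + 1 mM CaCl2, 0.5 mM MgCl2, 0.05% BSA; cpds in DMSO + […] (300 uM stock), 30 min 37C; HTRF cAMP detection.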
TRPML1 inh: qHTS for Inhibitors of the Human Mucolipin Transient Receptor Potential 1 (TRPML1) | TRPML1-inducible cells, Ca2+ dye fluorescence, FDSS; hits give low values; inhibition of EC80 agonist-evoked calcium signal | Mucolipin-1 (Homo sapiens), Q9GZU1 | activity change, negative = inhibition, % (test concentration not listed) | actives 0.02% (n = 390,000); in the data active means activity change below about -50%; inconclusive means about -30% to -50%; inactive means above about -30%;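 note: stimulus is agonist 54-4 at its EC80 concentration; % is set by controls: 0 for no effect and ±100 for the full control effect; compound concentration not given in the record; the text of the record puts the active cut at -80%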
Target sequence (Q9GZU1 whole entry, looked up): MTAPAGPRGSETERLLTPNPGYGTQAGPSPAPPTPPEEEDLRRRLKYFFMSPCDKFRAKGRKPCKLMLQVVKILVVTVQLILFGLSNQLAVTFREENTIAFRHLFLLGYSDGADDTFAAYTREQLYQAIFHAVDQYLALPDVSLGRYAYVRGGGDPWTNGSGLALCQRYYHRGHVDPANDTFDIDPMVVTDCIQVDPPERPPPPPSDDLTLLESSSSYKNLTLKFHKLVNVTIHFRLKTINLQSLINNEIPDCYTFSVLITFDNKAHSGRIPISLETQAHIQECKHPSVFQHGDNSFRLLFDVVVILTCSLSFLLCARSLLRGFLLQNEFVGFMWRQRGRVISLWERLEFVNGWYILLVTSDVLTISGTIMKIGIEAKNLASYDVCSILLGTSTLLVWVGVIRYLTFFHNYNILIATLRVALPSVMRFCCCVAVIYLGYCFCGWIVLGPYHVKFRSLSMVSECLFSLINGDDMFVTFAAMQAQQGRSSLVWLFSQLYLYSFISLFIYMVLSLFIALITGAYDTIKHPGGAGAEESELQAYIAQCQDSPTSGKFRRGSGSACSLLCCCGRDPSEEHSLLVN
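TRPML1-DL cells, Tet-induced overnight (~16 h, 37 °C) at 1,500 cells/well, were loaded with Ca8 no-wash dye plus quencher for 45-90 min at room temperature. Compounds were pinned during FDSS kinetic reading; agonist 54-4 at EC80 (4 uM final) then added.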
Sfp PPTase inh: qHTS Assay for Inhibitors of Bacillus subtilis Sfp phosphopantetheinyl transferase (PPTase); 4'-phosphopantetheinyl transferase ffp (Bacillus subtilis), Q9F4F7; Biochemical Sfp PPTase activity, qHTS; actives 3.5% (n = 310,000); Potency, µM, inactives show max response, negative = inhibition, hits mostly inhibitors; active = well fitted inhibition curve with a large enough effect; inconclusive = small, poorly fitted or top-dose-only effect, or another doubt; inactive = no such curve, though single readings can be large or run the other way;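 note: the enzyme is Sfp with the accession as filed and its product quenches rhodamine fluorescence; potency is the fitted concentration of half-maximal effect; 0% = enzyme reaction without inhibitor and -100% = no enzyme wells; top concentration of the series not given in the record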
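Sfp 15 nM + cpd, 15 min RT; start w/ rhodamine-CoA 5 uM, BHQ-2-YbbR 12.5 uM (final); 50 mM Hepes pH 7.6, 10 mM MgCl2, 0.01% NP-40, 0.01% BSA; read 525/598 nm at 0 and 30 min.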
gsp ag: qHTS for Agonist of gsp, the Etiologic Mutation Responsible for Fibrous Dysplasia/McCune-Albright Syndrome: qHTS. AID 624287, 2012. Potency, µM (series often up to 76.9 µM), for the others: at the highest dose activation (cAMP increase), most hits filed as activators. actives 0.13% (n = 340,000). gsp mutant cells, cAMP HTRF, 30 min; control for the full effect not named in the record; active = well fitted activation curve with a large enough effect; inconclusive = small, poorly fitted or top-dose-only effect, or another doubt; inactive = no such curve, though single readings can be large or run the other way; cell line not stated here;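 note: phosphodiesterase inhibitor Ro 20-1724 added with compounds to block cAMP breakdown; potency is the fitted concentration of half-maximal effect; nearly all actives have a fitted effect of over 60% in size; about a fifth of the inactives were tested at one dose only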
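Cells stably selected in G418 were plated at 2000/well, grown 16-24 hr, then given compounds in DMSO with the PDE inhibitor […] (300 uM solution added) for 30 min at 37C; cAMP was read by HTRF.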
* hit, by the source's call; ? = inconclusive; . = not tested or not shown; [ ] = remark or other dose.

SMILES | ClpP mod | TRPV1 PAM | Menin MLL FP FL | gsp antag | TRPML1 inh | Sfp PPTase inh | gsp ag
COc1cccc(CN(CC(=O)NCc2ccco2)C(=O)CNS(=O)(=O)c2ccccc2)c1 | -1.1% | 3 | 2.0 | 4% | -8 | 13% | -7%[15.4 µM]
Nc1ccccc1NC(=O)c1ccccc1N | 119% | -19 | -0.3 | 12% | 11 | 10% | 20%
Cc1c(NC(=O)C2(c3ccccc3)CCOCC2)c(=O)n(-c2ccccc2)n1C | -2.6% | 8 | -1.6 | 13% | 6 | 14% | 6%
CCOc1ccccc1Nc1ncccc1C(=O)N1CCCC1 | -0.6% | ? | -0.4 | -5% | 4 | 5% | -40%[inhibitor]
CCCC(C)C(=O)Nc1cc(S(=O)(=O)N2CCCCC2)ccc1N1CCOCC1 (stereo not given) | 0.0% | -21 | . | -12% | -6 | . | -62%[inhibitor]
O=C(CSc1nnc(-c2cccc(S(=O)(=O)N3CCCCC3)c2)o1)c1ccc[nH]1 | 0.0% | -9 | 1.7 | -17% | 13 | 12% | -1%
C/C(=N/NC(=O)c1ccc(C(C)(C)C)cc1)c1ccccn1 | -2.6% | . | . | -7% | -1 | . | 3%[15.4 µM]
CC(C(=O)N1CCCC1)c1ccc([N+](=O)[O-])cc1 (stereo not given) | . | 26 | 1.6 | 10% | 10 | -7% | -1%[15.4 µM]
CC(=O)Nc1ccc(NC(=O)COC(=O)c2ccccn2)cc1 | -1.7% | 2 | 0.4 | -12% | 32 | 14% | 2%[15.4 µM]
COc1ccc(S(=O)(=O)Nc2ccccc2OC)cc1NC(=O)Cc1cccs1 | -0.6% | -6 | 1.7 | -4% | 27 | 0% | ?
COc1cc(SC)ccc1C(=O)N1CCN(c2ccccc2)CC1 | . | 3 | -0.4 | 2% | -22 | 15% | -17%[15.4 µM]
N=c1n(-c2ccccc2)c(O)cc(=O)n1-c1ccccc1 | -1.3% | . | 2.2 | -8% | -6 | 5% | 15%
Cc1nc(N)nc(Cl)c1Cc1ccc(Cl)cc1 | . | 10 | 1.1 | 4% | -7 | 7% | 14%
Cc1ccc(CN(C)CC(=O)Nc2ccc3c(c2)CCC3)cc1 | . | -14 | 6.5 | -5% | 7 | -8% | 26%
Nc1ccc2c3c(cccc13)C(=O)N(c1ccccc1)C2=O | -15% | 2 | -0.9 | 11% | -3 | -9% | -8%[15.4 µM]
O=C1CC(c2ccccc2)n2nc(NC(=O)c3ccccn3)nc2N1 (stereo not given) | -4.3% | 0 | 1.0 | -6% | -5 | ? | 15%
CCCCC1(C(=O)OCC)CC(CSC(=N)N)OC1=O (stereo not given) | . | 4 | 0.4 | 12% | -8 | 0% | 15%[15.4 µM]
N#CC1=C(Nc2ccccc2)SC=C(c2ccc(Cl)c(Cl)c2)N=C1N1CCOCC1 | -3.5% | 4 | 7.3 | 5% | 1 | -14% | -22%
Cc1cc2c(n1-c1ccc(Br)cc1)CC(C)(C)CC2=O | 0.7% | 8 | 1.3 | -14% | 6 | 5% | 6%
CCCCN(CCCC)S(=O)(=O)c1ccc(OC)c2ncccc12 | -5.9% | -18 | 2.5 | ? | 0 | 8% | 0%
COc1ccc(NC(=O)Nc2ccc(F)cc2F)cc1 | . | 3 | -4.0 | ? | -17 | 15% | 20%
COc1ccccc1Oc1ccc(N/C=C2/CCCC2=O)cc1 | -5.5% | -25 | 9.3 | -4% | 6 | -8% | -17%
CCOc1ccc(-n2c(Cc3cc(=O)[nH]c(=O)[nH]3)nnc2SCC)cc1 | -4.7% | 22 | 3.8 | 8% | 0 | 3% | -10%
OCCN1CNC(=S)NC1 | . | 7 | 4.2 | 12% | 20 | -16% | -5%[15.4 µM]
CC1=CC=CN2C1=NC(=O)CC2(C)C(=O)N(CC(=O)NC1CCCC1)Cc1ccccc1 (stereo not given) | -1.2% | -4 | 2.2 | 13% | 11 | 3% | 8%[15.4 µM]
Cc1ccc(S(=O)(=O)N2CCN(C(=O)CSC(=S)N3CCCC3)CC2)c(C)c1 | 1.2% | -1 | . | -5% | -4 | . | -26%
COc1ccc(Cc2nnc(Nc3ccc(C)cc3C)[nH]c2=O)cc1 | -1.0% | -12 | -0.9 | -17% | -14 | 12% | 3%
O=C(N/N=C1\CCSc2ccc(F)cc21)c1cccnc1 | -4.4% | 9 | -2.7 | -4% | -16 | 12% | -11%
CC(C)C(=O)NC(NC(=S)Nc1cccc2cccnc12)C(Cl)(Cl)Cl (stereo not given) | 15% | -1 | 1.1 | -16% | 15 | -22% | -2%
CN1CCN(C(=O)c2ccc(CN3CCOCC3)cc2)CC1 | -0.2% | 4 | -0.3 | 6% | -2 | -17% | ?
O=C(NCc1cc(C(F)(F)F)cc(C(F)(F)F)c1)C1CC(c2c(Cl)cccc2Cl)=NO1 (stereo not given) | 1.5% | 11 | 0.9 | 5% | 54 | 13% | .
Nc1ncc(Br)cc1S(=O)(=O)NCCC(=O)N1CCN(c2ccccc2)CC1 | -2.7% | -1 | . | -3% | 10 | 5% | -5%
O=C(CCN1CCCCC1=O)NC1CCCc2c1cnn2-c1ccccc1F (stereo not given) | 1.0% | 4 | 5.4 | -5% | -9 | 15% | 21%
CCOC(=O)c1c(C)nc2c(c1-c1cc(OC)c(OC)c(OC)c1)C(=O)c1ccccc1-2 | 1.2% | 3 | 0.8 | -4% | 4 | 25% | 13%
Cn1c(=O)c2c(SCc3cccc(C(F)(F)F)c3)nc(-c3ccco3)nc2n(C)c1=O | 3.3% | 6 | 2.1 | 14% | 2 | 7% | ?
CCCCCCN1C(=O)CC(NC(=O)OCC2c3ccccc3-c3ccccc32)C/C=C\C1C(C)C (stereo not given) | -2.4% | . | . | -10% | 5 | . | .
COC1OC2COC(c3ccccc3)OC2C2OC12 (stereo not given) | -2.2% | . | . | 3% | -11 | . | 4%[15.4 µM]
O=C(Cn1ncc(Cl)c(Cl)c1=O)Nc1ccc2c(c1)OCO2 | 0.6% | -15 | . | -26% | -1 | . | -65%[inhibitor]
Cc1nn(-c2ncc(C(F)(F)F)cc2Cl)c(=O)n1-c1ccccc1Cl | 19% | -1 | 2.3 | -6% | 14 | 15% | 1%[15.4 µM]
O=C(CN1CCN(S(=O)(=O)c2ccccc2[N+](=O)[O-])CC1)NC(=O)NCc1ccco1 | 1.1% | -1 | 1.7 | -16% | 15 | 15% | -9%

Quoted from the listing:
`CC(C)C(=O)NC(NC(=S)Nc1cccc2cccnc12)C(Cl)(Cl)Cl` (stereo not given) in ClpP mod shows 15%
`Nc1ncc(Br)cc1S(=O)(=O)NCCC(=O)N1CCN(c2ccccc2)CC1` in ClpP mod shows -2.7%
`CCOC(=O)c1c(C)nc2c(c1-c1cc(OC)c(OC)c(OC)c1)C(=O)c1ccccc1-2` in TRPML1 inh shows 4
`O=C(CCN1CCCCC1=O)NC1CCCc2c1cnn2-c1ccccc1F` (stereo not given) in Sfp PPTase inh shows 15%
`OCCN1CNC(=S)NC1` in Menin MLL FP FL shows 4.2

One compound at a time, as listed above. Order of screens: ClpP mod, TRPV1 PAM, Menin MLL FP FL, gsp antag, TRPML1 inh, Sfp PPTase inh, gsp ag
Cn1c(=O)c2c(SCc3cccc(C(F)(F)F)c3)nc(-c3ccco3)nc2n(C)c1=O as listed: 3.3%, 6, 2.1, 14%, 2, 7%, ?
O=C(Cn1ncc(Cl)c(Cl)c1=O)Nc1ccc2c(c1)OCO2 as listed: 0.6%, -15, ., -26%, -1, ., -65%[inhibitor]

Later entries.
SMILES | ClpP mod | TRPV1 PAM | Menin MLL FP FL | gsp antag | TRPML1 inh | Sfp PPTase inh | gsp ag
O=C(O)c1cc(S(=O)(=O)N2CCCCC2)ccc1N1CCCC1 | -4.1% | . | . | 7% | -6 | . | -42%[inhibitor]
CC(=O)[C@H]1CC[C@H]2[C@@H]3CC=C4C[C@@H](OS(=O)(=O)O)CC[C@]4(C)[C@H]3CC[C@]12C | 1.5% | . | . | -3% | 1 | . | .
CCOc1ccccc1C1C(C#N)=C(SCC(=O)OC)NC(=O)C1C(=O)OC (stereo not given) | 1.1% | -2 | -0.9 | -8% | 9 | 5% | 26%
Cc1cccc(-c2nnn(Cc3nnc(NC(=O)c4ccccc4)s3)n2)c1 | -2.9% | -7 | 4.8 | 3%[15.4 µM] | 26 | 7% | -1%
COc1ccc(-c2[nH]ncc2CN(C)C(C)c2ccon2)cc1F (stereo not given) | . | 1 | 1.0 | 1% | -12 | 15% | 12%[15.4 µM]
Brc1ccc2[nH]c3c(NCc4ccccn4)ncnc3c2c1 | . | 4 | 5.5 | -5% | 7 | -14% | 7%[15.4 µM]
Cc1ccc(C(=O)NCC(=O)N(C)Cc2ccccc2C)s1 | -2.5% | . | . | . | -1 | . | -29%
COc1ccc(CSc2nnnn2-c2ccc(C(=O)O)cc2)cc1 | 1.4% | 1 | -3.0 | -8% | -11 | 10% | 10%
COc1ccccc1NC(=O)C1=C(C)Nc2nc(CCCO)nn2C1c1ccc2c(c1)OCO2 (stereo not given) | 1.2% | 18 | -1.6 | 1% | -9 | 12% | 1%
COC(=O)NC1CCS(=O)(=O)C1 (stereo not given) | -0.4% | 1 | 0.2 | 2% | -9 | -17% | -37%[inhibitor]
CC(=O)N1CCCN(Cc2nc(C3(c4ccc(C)cc4)CCCC3)no2)CC1 | . | -7 | -2.5 | 8% | 3 | 17% | -3%
CCOc1ccc(S(=O)(=O)N2CCN(CC)CC2)cc1NC(=O)c1ccccc1F | . | -5 | -1.6 | -1% | 2 | 17% | -31%[inhibitor]
